CBX7 AlphaScr: CBX7 inhibition, primary AlphaScreen; normalised signal (fraction of DMSO) (no concentration beside the values); AlphaScreen His6-CBX7 / biotin-H3K27me3 peptide binding; hits give low values; 66,000 compounds, 1.1% hits; O95931; in the data active = normalised signal below about 0.5;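 note: 100 nL library stock added to about 20 µL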
Target sequence (O95931 whole entry, looked up): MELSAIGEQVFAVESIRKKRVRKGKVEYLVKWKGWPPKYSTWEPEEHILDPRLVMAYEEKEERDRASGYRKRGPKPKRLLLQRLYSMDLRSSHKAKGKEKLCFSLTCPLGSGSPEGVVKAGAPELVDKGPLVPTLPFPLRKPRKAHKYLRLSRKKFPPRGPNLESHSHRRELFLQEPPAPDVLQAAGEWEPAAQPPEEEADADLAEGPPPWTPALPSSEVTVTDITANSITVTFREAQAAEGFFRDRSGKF
CBX7 AlphaScr z-score: recorded beside CBX7 AlphaScr, whose call it bears; z-score; measured here: z-score of CBX7 signal; some inactives read as strong as hits; reference of the scale not given here;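 same signal on another scale; lower means less binding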
The depositor's hits bear a star.

SMILES	CBX7 AlphaScr	CBX7 AlphaScr z-score
CCc1ccc(OCC(=O)Nc2c(C(=O)c3ccc(C)cc3)oc3ccccc23)cc1	1.07	0.254
O=C(Cn1ccc2ccccc2c1=O)NCC(=O)N1CCN(c2cccc(Cl)c2)CC1	0.978	-0.215
COC(=O)c1ccc2nc(C)cc(Nc3cccc(C(=O)O)c3)c2c1	0.96	-1.32
COc1ccc(C2C(C(=O)Nc3ccc(C)c(F)c3)CCC(=O)N2c2ccc(OC)cc2)cc1 (configuration not stated)	1.03	0.299
CC(=O)N1CCc2cc(S(=O)(=O)Nc3ccc(C)cc3C)ccc21	0.977	-0.742
Cc1cc(N2CCC(C)CC2)nc2ccc(NC(=O)CCC(=O)NCc3ccc(F)cc3)cc12	0.888	-4.91
CN(CC(=O)NCc1ccccc1Cl)S(=O)(=O)c1cccc2cccnc12	1.17	2.06
COc1ccc(NS(=O)(=O)c2cnc[nH]2)cc1	0.799	-2.6
COc1cc2c(=O)c(S(=O)(=O)c3ccccc3)cn(Cc3ccc(Cl)cc3)c2cc1OC	0.923	-1.47
Cc1ccc(-c2nc(CSCC(=O)O)c(C)o2)cc1	1.19	2.15
Cc1ccc(-c2noc(CCC(=O)N3CCC(Cc4ccccc4)CC3)n2)cc1	1.06	0.0808
CCCCN(CCCC)S(=O)(=O)c1ccc2c(c1)CCN2C(=O)C1CCC1	1.09	3.04

Whole records, looked up by structure. Order of screens: CBX7 AlphaScr, CBX7 AlphaScr z-score
Listed for CC(=O)N1CCc2cc(S(=O)(=O)Nc3ccc(C)cc3C)ccc21 → 0.977, -0.742
Listed for Cc1ccc(-c2noc(CCC(=O)N3CCC(Cc4ccccc4)CC3)n2)cc1 → 1.06, 0.0808
Listed for O=C(Cn1ccc2ccccc2c1=O)NCC(=O)N1CCN(c2cccc(Cl)c2)CC1 → 0.978, -0.215
Listed for COc1ccc(C2C(C(=O)Nc3ccc(C)c(F)c3)CCC(=O)N2c2ccc(OC)cc2)cc1 (configuration not stated) → 1.03, 0.299
Listed for COC(=O)c1ccc2nc(C)cc(Nc3cccc(C(=O)O)c3)c2c1 → 0.96, -1.32

Remaining list, next part:
SMILES	CBX7 AlphaScr	CBX7 AlphaScr z-score
COCCNC(=O)C1C2C=CC3(CN(Cc4ccccc4Cl)C(=O)C13)O2 (configuration not stated)	1.02	1.11
COc1cc2c(cc1OC)C(C(=O)Nc1ccc(C)c(F)c1)C(c1ccccc1F)N(C)C2=O (configuration not stated)	1.21	2.67
Cc1cc(C)c(-c2cc(C(F)(F)F)no2)c(=O)[nH]1	0.995	-0.134
Cc1nn(-c2ccccc2)c2c1-c1nc3ccccc3nc1C(C)(C)C2	1.27	6.64
CCOc1ccc(-c2nc(C#N)c(N3CCN(CC)CC3)o2)cc1	1.09	1.02
CC(C)c1ccc(NC(=O)[C@@H](c2ccccc2)N2Cc3ccccc3C2=O)cc1	0.943	-2.47
CC(C)(C)c1ccc(-c2nc(-c3ccc(Cl)cc3)no2)cc1	1.25	5.69
Cc1ccc(C)c(Cn2c(CCNC(=O)C(C)(C)C)nc3ccccc32)c1	1.05	0.732
CC1(C)CC(=O)c2cc(C(=O)NCCCN3CCOCC3)c(=O)n(-c3ccc(Cl)cc3)c2C1	1.02	0.188
CCCCNC(=O)c1c[nH]c2ccc(S(=O)(=O)Nc3cccc(Cl)c3C)cc2c1=O	0.902	-1.81
CCOC(=O)c1c(C)n(C)c2ccc(OCC(O)CNCCCO)cc12 (configuration not stated)	0.951	-1.75
CCC(=O)N1CCc2cc(S(=O)(=O)N(CC)c3ccccc3)ccc21	0.807	-0.778
Cc1ccc(-n2cc(C(=O)Nc3ccc(C)c(F)c3)c3ccccc3c2=O)cc1C	0.904	-3.2
O=C(Nc1cccc(-c2nc3ncccc3o2)c1)c1cccc(Br)c1	0.948	-0.905
CCCC(CCC)C(=O)NCCc1cc2ccc(OC)cc2[nH]c1=O	0.929	-2.37
CCOC(=O)c1ccccc1NC(=O)c1sc2ncn(Cc3ccccc3Cl)c(=O)c2c1C	1.07	0.432
O=C(NC1CCCC1)C(c1ccc(Cl)cc1)N1CCc2ccccc21 (configuration not stated)	0.971	-0.719
CC(Oc1ccc(Cl)cc1Cl)C(=O)Nc1nccs1 (configuration not stated)	0.966	-0.04
CCOC(=O)C1CCCN(C(=O)c2cn(CC)c(=O)c3cc(OC)c(OC)cc23)C1 (configuration not stated)	1.07	0.636
Cc1cc2nc(-c3cc(NC(=O)c4cccnc4)ccc3Cl)oc2cc1C	0.79	-2.49
Nc1nonc1C(=O)NCCNS(=O)(=O)Cc1ccccc1	1.02	0.184
COCCNC(=O)c1ccc2c(c1)N(Cc1c(F)cccc1Cl)C(=O)c1ccccc1S2	0.936	-0.276
O=C(NCCCN1CCN(c2ccccc2F)CC1)Nc1ccc(F)cc1	1.51	3.99
Cc1ccc(-n2nc(C)c3c(C)c(CCC(=O)NCc4ccc(Cl)cc4)c(C)nc32)cc1	1.23	1.73
CCc1ccc(OCc2nc(-c3cccnc3)no2)cc1	0.999	-0.000636
N#Cc1ccc(-c2nc(-c3c(F)cccc3F)no2)cc1	1.11	0.108
COc1ccc(NC(=O)C2C3C=CC4(CN(Cc5cccnc5)C(=O)C24)O3)c(OC)c1 (configuration not stated)	1.01	0.456
O=C(CN1C(=O)COc2ccc(S(=O)(=O)N3CCCC3)cc21)NCc1ccccn1	1.03	0.898
CCOC(=O)c1c(C)n(C)c2ccc(OCC(O)CNCC3CCCO3)cc12 (configuration not stated)	1.01	0.285
COc1cc(NC(=O)c2cc(-c3ccc(Br)cc3)on2)c(OC)cc1Cl	0.981	-0.417
COc1cccc(CNc2cc(C)nc3ncnn23)c1	1.04	0.945
CCCN(CCC)C(=O)c1ccc2c(c1)N(Cc1ccccc1)C(=O)c1ccccc1S2(=O)=O	0.926	-1.15
Cc1ccn2c(NC(=O)c3cccc(F)c3)c(-c3ccccc3)nc2c1	0.944	-1.81
COc1cccc(NC(=O)Cn2ncc3c2-c2ccccc2OC3)c1	0.832	-2.42
Cc1cc(=O)[nH]c(Nc2nc(C)c3cc(C)c(C)cc3n2)n1	1.19	0.682
COc1ccc(-c2nc(SCC(=O)Nc3ccccc3)c(-c3ccc(OC)cc3)[nH]2)cc1	0.955	-2.14
CCCCN(CC)CCNC(=O)c1cn(-c2ccc(Cl)cc2)c(=O)c2ccccc12	1.05	1.2
COc1ccc(-c2nc(C#N)c(N3CCC(C)CC3)o2)cc1	0.629	-5.36
O=C(CN1C(=O)CSc2ccc(S(=O)(=O)N3CCOCC3)cc21)NC1CCCCCC1	0.87	-1.53
COc1ccc(Cl)cc1NC(=O)c1cc(-c2ccc(C)cc2C)nc2ccccc12	1.04	0.864
Cc1ccc(NC2c3ccccc3C(=O)N2Cc2ccccc2)c(C)c1 (configuration not stated)	0.954	-0.65
CC(=O)Nc1ccc(Nc2nc(-c3sc(NC(C)=O)nc3C)cs2)cc1	0.923	-0.192
CCN(CCCNC(=O)C1CCN(S(=O)(=O)c2cnc[nH]2)CC1)c1cccc(C)c1	0.906	-1.76
COc1cccc(CNc2sc3c(c2C(=O)Nc2ccccc2OC)CCC3)c1	1.01	0.143
Cc1cc(N2CCN(C)CC2)nc2ccc(NC(=O)CCC(=O)N3CCCCCC3)cc12	0.991	-0.149
CCCCNS(=O)(=O)c1ccc2nc(-c3cccnc3)cc(C(=O)NCCc3ccccc3)c2c1	0.965	-0.485
COc1ccc(OC)c(NC2c3ccccc3C(=O)N2c2ccc(Cl)cc2)c1 (configuration not stated)	0.638	-9.78
Cc1cc(N2CCOCC2)nc2ccc(NC(=O)CCC(=O)N(C)Cc3ccccc3)cc12	0.974	-0.588
Cc1cc(C(=O)Nc2cc(C)nn2-c2ccccc2)on1	0.727	-5.36
COc1ccc(-n2nc3c(c2NC(=O)COc2ccc(Cl)cc2)CSC3)cc1	1.02	0.313
CCOc1cc2c(cc1OCC)C1C(C(=O)Nc3cccc(Cl)c3)c3ccccc3C(=O)N1CC2 (configuration not stated)	0.984	-0.127
COC(=O)c1ccc(-c2ncc(-c3ccc(N(C)C)cc3)o2)cc1	1.13	4.48
COc1ccc(-c2nc(-c3cccnc3)no2)cc1OC	1.07	0.495
COc1ccc(CCNC(=O)c2cc(=O)[nH]c3ccccc23)cc1OC	1.04	0.0461
COc1ccc2c(c1)Cc1sc(NC(=O)c3ccc(OC)c(OC)c3)nc1-2	0.98	-0.287
CC1CN(S(=O)(=O)c2ccc(C(=O)Nc3nnc(C4CC4)o3)cc2)CC(C)O1 (configuration not stated)	0.643	-3.43
Clc1ccc(Cc2nnc(-c3cccs3)o2)cc1	1.08	2.73
c1ccc2c(c1)CCN(c1nc3cccnc3s1)C2	1.01	0.331
O=C(CSc1nnc(Cc2cc(=O)[nH]c(=O)[nH]2)n1-c1ccccc1)Nc1nccs1	0.818	-6.4
Cc1c(C(=O)N2CCN(C)CC2)sc2ncnc(N3CCN(c4ccccc4F)CC3)c12	1.19	2.44

Other results:
SMILES	CBX7 AlphaScr	CBX7 AlphaScr z-score
NS(=O)(=O)c1ccc(CCNC(=O)Cn2c(=O)[nH]c3ccsc3c2=O)cc1	1.02	0.162
Cc1cc(=O)n2nc(N3CCCC(C(=O)NC4CCCC4)C3)sc2n1 (configuration not stated)	1.04	0.358
COc1ccc(CNC(=O)c2cc3sc(Cl)cc3n2C)cc1	0.999	-0.0391
Cc1ccc(-c2nc3cc(NC(=O)c4cccnc4Cl)ccc3o2)cc1C	0.919	-0.925
CC(Sc1nc(-c2cccnc2)ccc1C#N)C(=O)O (configuration not stated)	1.09	0.878
Cc1ccc(C)c(-c2csc(Nc3ccc(F)cc3)n2)c1	0.937	-0.966
CCOc1c(OC)cccc1C1CC(=O)Nc2c1ccc(C)c2C (configuration not stated)	0.816	-2.47
CCCCOc1cccc(C(=O)N(Cc2ccc(Cl)cc2)C2CCS(=O)(=O)C2)c1 (configuration not stated)	0.832	-0.168
Cc1ccc(S(=O)(=O)Nc2ccccc2CNc2cccc3cccnc23)cc1	0.921	-0.181
CCn1nnnc1-c1ccc(OC)c(S(=O)(=O)Nc2ccc(F)cc2)c1	1.04	0.452
CCC(=O)N1CCc2cc(Br)cc(S(=O)(=O)NCCN3CCOCC3)c21	1.03	1.49
CCn1c(C(=O)N2CCC(C(=O)N3CCN(c4ncccn4)CC3)CC2)cc2sccc21	0.921	-2.1

6 entries already listed, arranged by length of the SMILES, low to high.
SMILES	CBX7 AlphaScr	CBX7 AlphaScr z-score
CC(Sc1nc(-c2cccnc2)ccc1C#N)C(=O)O (configuration not stated)	1.09	0.878
Cc1ccc(-c2nc3cc(NC(=O)c4cccnc4Cl)ccc3o2)cc1C	0.919	-0.925
Cc1ccc(S(=O)(=O)Nc2ccccc2CNc2cccc3cccnc23)cc1	0.921	-0.181
CCC(=O)N1CCc2cc(Br)cc(S(=O)(=O)NCCN3CCOCC3)c21	1.03	1.49
CCCCOc1cccc(C(=O)N(Cc2ccc(Cl)cc2)C2CCS(=O)(=O)C2)c1 (configuration not stated)	0.832	-0.168
CCn1c(C(=O)N2CCC(C(=O)N3CCN(c4ncccn4)CC3)CC2)cc2sccc21	0.921	-2.1

(list continues)
SMILES	CBX7 AlphaScr	CBX7 AlphaScr z-score
c1ccc(CCNc2c3c(nc4ccccc24)CCC3)cc1	0.911	-1.52
COc1ccc(OC)c(-n2c(C)nc3cc(C(=O)O)ccc32)c1	1.09	0.924
CCC(=O)N1CCc2cc(S(=O)(=O)NCCC(=O)NCc3ccc(F)cc3)ccc21	1.02	0.582
COc1cccc(N2CCN(C(=O)C3CCN(S(=O)(=O)c4cccc5cccnc45)CC3)CC2)c1	0.972	-0.351
CCOc1ccccc1C(=O)NCCc1cc2ccc(C)cc2[nH]c1=O	1.05	2.12
CCOc1ccc(NC(=O)C(CC(C)C)NS(=O)(=O)c2ccc3c(c2)CCN3C(=O)CC)cc1 (configuration not stated)	1.09	0.963
O=C(c1cc(-c2ccc3c(c2)OCO3)on1)N1CCN(Cc2ccccc2)CC1	1.03	0.765
COc1ccccc1NC(=O)c1cn(-c2ccccc2)nc1-c1cccnc1	0.924	-1.98
CCC1=Nc2cc(C(=O)NCCN(CC)c3ccccc3)ccc2Sc2ccccc21	0.863	-1.64
CCOC(=O)Cc1csc(NC(=O)CCN2C(=O)C3C4C=CC(C4)C3C2=O)n1 (configuration not stated)	1.04	1.2
O=C1CSC(c2ccccc2)N1c1ccc(O)cc1 (configuration not stated)	0.936	-0.687
CCC(=O)Nc1nonc1-c1nc2ccccc2n1CCC(C)C	0.847	-1.67
Cc1nn(Cc2ccccc2)c(C)c1NC(=O)c1cc(-c2ccc(Cl)cc2)on1	1.05	0.0631
Cc1noc(C(=O)Nc2ccc3c(c2)OCO3)c1Cl	0.955	-1.6
CN(CCNC(=O)c1cc(-c2cccnc2)nc2ccccc12)Cc1ccccc1	0.907	-1.84
CC(NC(=O)c1cnn2c(C(F)(F)F)cc(-c3ccc(Br)cc3)nc12)c1ccccc1 (configuration not stated)	1.04	1.43
COc1ccc(Cl)cc1NC(=O)c1c(NCc2cccnc2)sc2c1CCCC2	0.599	-5.62
CNc1oc(COc2ccc(F)cc2)nc1C#N	0.996	-0.105
COc1ccc2nc(NC(=O)c3ccc(S(=O)(=O)N4CCCCC4)cc3)sc2c1	1.04	0.647
O=C(Nc1ccc2c(c1)OCO2)c1cc(C2CC2)on1	0.975	-0.805
Cc1ccc(-c2nc(C(C)NC(=O)c3ccccc3)no2)cc1 (configuration not stated)	1.37	2.16
Cc1ccc2nsnc2c1NC(=O)c1cc(Cl)ccc1Cl	1.04	1.65
COc1cccc2cc(C(N)=O)c(=O)oc12	1.03	0.874
O=C(Cn1cnc2sc3c(c2c1=O)CCCC3)NCC(=O)Nc1ccccc1F	0.994	-0.175
CCCOc1ccc(C(=O)N(Cc2ccccc2)C2CCS(=O)(=O)C2)cc1 (configuration not stated)	0.905	-0.0947
O=C1c2cccc3cccc(c23)C(=O)N1CC1CCN(CC(O)COCc2ccc(Cl)cc2)CC1 (configuration not stated)	0.741	-2.82
Cc1ccc(-c2noc(-c3ccccc3C)n2)cc1	1.42	13.8

Only part of the results is shown; rates above refer to the full screens.
